RN4220 kill: kills Staphylococcus aureus RN4220; S. aureus RN4220 growth, OD600, 16 h; inhibition, % (no concentration beside the values); 330,000 tested, 0.33% active;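 active = z-score of -3 or lower and OD600 up to 0.18 on both plates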;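 note: plate controls were untreated cells for no effect and reference antibiotic for full effect; stock transfer was 100 nL into about 80 µL; one replicate is shown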
Autofluor counter: compound fluorescence in toxin protease inhibitor counterscreen; 360,000 tested, 3.1% active; AID 624483; fluorescence intensity (test concentration not listed); compound autofluorescence counterscreen, microsphere flow cytometry; stronger effect = higher value;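 active = at least 3 SD above the mean of all compounds, about 16000 in these data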;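 note: 100 nL of 1 mM stock went into each well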
PrP UTR inh: suppresses PrP 5' UTR mRNA reporter expression; cell-based PrP 5' UTR mRNA reporter, plate reader; inhibition, % (no concentration beside the values); 340,000 tested, 0.35% active; AID 488862;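 active = every replicate at 50% or more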;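 note: 0 = median of the neutral control wells; tested in H4 reporter cells; numbers are from one replicate; inactives centre near -14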
BJeLR viability: kills HRASV12-expressing BJeLR cells; BJeLR (HRASV12) viability, CellTiter-Glo ATP luminescence, 48 h; reference of the scale not given here; inhibition, % (concentration not given with the values); 300,000 tested, 0.17% active; AID 1554;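 active = replicate mean above 50%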;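 note: 50 nL library stock added to about 25 µL; numbers are from one replicate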
Sa ugtP lethal: compounds lethal to S. aureus RN4220 ugtP deletion mutant; OD600 growth, 16 h; some inactives read as strong as hits; growth inhibition, % (no concentration beside the values); 330,000 tested, 0.54% active;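 active = z-score under -3 and OD600 up to 0.15 on both plates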;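 note: plate controls were untreated wells for no effect and antibiotic for full effect; wells of about 80 µL received 100 nL stock; the first replicate is given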
Mtb hypoxia rep: Mtb hypoxia fluorescent reporter inhibition | M. tuberculosis hypoxia-regulated fluorescent reporter, fluorescence | fluorescence inhibition, % (no concentration beside the values) | 300,000 tested, 0.1% active;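 active = 35 to 45% if threefold the growth effect, above 45% if 1.5-fold the growth effect; inactive = the rest, general growth blockers included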;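 note: wells of about 50 µL received 100 nL stock; 0% = vehicle wells and 100% = reference inhibitor wells; whole bacteria with a GFP reporter of the hypoxia response; strong numbers were not always called active; many hits fall short of the cut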
Mtb hypoxia rep growth: also measured in Mtb hypoxia rep; calls as there; growth inhibition, %; measured here: M. tuberculosis growth (absorbance);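 0% = vehicle and 100% = reference antibiotic; read after six days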
* = called active by the depositor; · = not tested or not shown.

SMILES	RN4220 kill	Autofluor counter	PrP UTR inh	BJeLR viability	Sa ugtP lethal	Mtb hypoxia rep	Mtb hypoxia rep growth
CCCCS(=O)(=O)N1CCC(C(=O)NCC2CCCO2)CC1 (stereo unspecified)	3.5	4197	-12	9	7	0	4
CCOCC(=O)Nc1ccc(-c2cn3cccnc3n2)cc1	-0.9	10799	2	7	-1	-9	11
O=[N+]([O-])c1ccccc1/C=N/n1c(COc2ccccc2)n[nH]c1=S	·	22358*	-44	2	·	·	·
COc1cc(C=NNC(=O)c2ccc(COc3ccccc3Cl)o2)cc(Br)c1O	3.9	·	·	·	-7	4	-1
COc1ccc(CNC(=O)COC(=O)c2ccc(OCC3CCCO3)cc2)cc1 (stereo unspecified)	5.6	5283	-19	·	8	12	2
O=C(CCSCc1cccc(F)c1)NCc1ccc(F)cc1	-3.2	3893	-13	6	0	12	10
O=C(CCn1c(=O)sc2ccccc21)NCc1ccco1	3.3	4256	-25	-12	0	1	-3
CCOc1ccc(/C=N/NS(=O)(=O)c2ccc(C)cc2)cc1OC	·	3486	-30	4	·	·	·
CS(=O)(=O)N(CCc1ccccc1)CC(N)=O	0.2	3771	-23	5	2	·	·
COc1ccccc1C1NC(=O)NC(C)=C1C(=O)OC1CCCCC1 (stereo unspecified)	6.1	4264	-6	12	4	6	13
Cc1ccc(S(=O)(=O)N(C)C)cc1NC(=O)C1CCCCC1	2.5	5499	-11	20	5	9	7
COc1ccc(N(CC(=O)NCc2cccs2)S(=O)(=O)c2cccnc2)cc1	0.9	5854	-31	-2	3	·	·
COc1ccc(S(=O)(=O)Nc2ccc(C(N)=O)cc2)cc1C(=O)N1CCCCCC1	2.0	3701	-17	-7	10	-12	7
COc1ccc(CN2C(=O)CN=C2Nc2cc(C)ccc2C)cc1	0.1	2915	2	-4	19	9	9
CC(=O)Nc1ccc(C(=O)OC2CCOC2=O)cc1 (stereo unspecified)	4.2	3882	-30	0	4	2	9
CC1(C)CC(=O)CC(=NNC(=O)C2C3CCCCC32)C1 (stereo unspecified)	1.7	·	·	·	6	5	1
CCCCOC(=O)Cn1c(=O)c2c(nc3n2CCCCN3c2ccc(C)cc2)n(C)c1=O	-0.5	4170	-19	7	-2	·	·
CCS(=O)(=O)N1CCN(c2ccc([N+](=O)[O-])c(NCc3cccnc3)c2)CC1	0.9	3224	-1	-2	-13	-3	11
COc1cc(/C=N/NC(=O)c2cc[n+]([O-])cc2)cc(OC)c1OC	·	3591	-1	1	·	·	·
CSc1ccccc1NC(=O)Cn1nc([N+](=O)[O-])c(Cl)c1C	3.8	4933	-31	-6	-2	0	7
Cc1cc(C)cc(N(C(=O)CCC(=O)Nc2cc(C)on2)C(C(=O)NC2CCCC2)c2ccco2)c1 (stereo unspecified)	1.4	3269	-11	-7	-4	-10	-6
CCCn1c(N2CCN(C(=O)Nc3ccc(Cl)cc3)CC2)nc2ccccc21	-2.0	4447	-43	5	-16	0	2
O=C1/C(=C/c2ccccc2)SC(=S)N1N1C(=O)C2CC2C1=O (stereo unspecified)	·	2134	-16	-1	·	·	·
CCC(=O)NNC(=O)c1c(O)c2ccccc2[nH]c1=O	·	4154	-24	4	·	·	·

Single records, as listed above. Screens in order: RN4220 kill	Autofluor counter	PrP UTR inh	BJeLR viability	Sa ugtP lethal	Mtb hypoxia rep	Mtb hypoxia rep growth
CCCn1c(N2CCN(C(=O)Nc3ccc(Cl)cc3)CC2)nc2ccccc21 as listed: -2.0	4447	-43	5	-16	0	2
CCCCOC(=O)Cn1c(=O)c2c(nc3n2CCCCN3c2ccc(C)cc2)n(C)c1=O as listed: -0.5	4170	-19	7	-2	·	·
COc1ccc(S(=O)(=O)Nc2ccc(C(N)=O)cc2)cc1C(=O)N1CCCCCC1 as listed: 2.0	3701	-17	-7	10	-12	7
CCS(=O)(=O)N1CCN(c2ccc([N+](=O)[O-])c(NCc3cccnc3)c2)CC1 as listed: 0.9	3224	-1	-2	-13	-3	11
O=C1/C(=C/c2ccccc2)SC(=S)N1N1C(=O)C2CC2C1=O (stereo unspecified) as listed: ·	2134	-16	-1	·	·	·

Going on with the list.
SMILES	RN4220 kill	Autofluor counter	PrP UTR inh	BJeLR viability	Sa ugtP lethal	Mtb hypoxia rep	Mtb hypoxia rep growth
NNc1nc(-c2ccccc2)nc(-c2ccccc2)c1Br	-0.4	4069	-13	2	0	6	-3
O=C(CSc1nc2sc3c(c2c(=O)[nH]1)CCC3)NCCO	4.9	4567	-11	3	6	-10	2
CCN1C(=O)c2n[nH]c(C(=O)OC)c2C1=O	-0.4	4726	-4	-3	-1	·	·
CCc1ccc(C2C(C#N)=C(N)N(N(C)C)C3=C2C(=O)CCC3)cc1 (stereo unspecified)	1.4	3413	-12	-13	3	2	-3
Cc1c(/C=N\NC(=O)c2c[nH]c3ccccc23)cnn1C	·	1961	-12	-2	·	·	·
COC(=O)c1[nH]c2ccccc2c1CN1CCOCC1	4.2	3139	-46	-5	14	4	9
CCN(CC)CCOCCOc1ccc(Cl)c2ccccc12	-1.2	5189	-22	1	1	16	8
Cc1ccc(Sc2nc([N+](=O)[O-])nn2C)cc1	3.7	2460	-7	2	15	11	6
CCOc1cc(/C=C2\C(=O)N(CCC#N)N=C2C)ccc1OCC(N)=O	-2.5	4440	-14	4	-2	-5	-4
COc1ccc2sc(-c3ccccc3OC)c(-c3ccc(OC)c(F)c3)c2c1	-21	3637	-19	·	47	3	7
COCCn1c(N)c(N(Cc2ccccc2)C(=O)c2ccc3ccccc3c2)c(=O)[nH]c1=O	14	3708	-5	1	3	-3	4
O=C1CCCC(=O)C1=C1SCCS1	8.0	9348	0	7	9	2	12
O=C(OCC(=O)N1CCC(Cc2ccccc2)CC1)c1ccccc1F	0.0	6355	-34	·	8	12	11
O=C(c1cc([N+](=O)[O-])ccc1N1CCOCC1)N1CCN(S(=O)(=O)c2ccc(F)cc2)CC1	·	5103	-18	4	·	·	·
O=C(C[n+]1cc(Br)cc2ccccc21)c1ccc(Cl)cc1	-9.6	6803	-13	14	-11	0	3
O=C(Nc1ccc(-c2csc(Nc3ccccc3)n2)cc1)c1ccccc1	1.3	3759	-33	11	-30	1	8
COc1ccccc1NC(=O)C(C)OC(=O)c1ccc(-n2cnnn2)cc1 (stereo unspecified)	-2.4	3581	5	-9	-6	-15	13
O=C(Cn1c2ccc(F)cc2c2nc3n(c(=O)c21)CCS3)Nc1ccc(Cl)cc1F	-6.1	4421	-14	0	-4	7	2
CCOCCN(C(=O)c1ccccc1Cl)c1cccc(C)c1C	6.9	4306	-17	-10	2	11	8
COc1ccc(-c2cc(C(=O)N3CCN(c4ccccc4)CC3)no2)cc1OC	-0.4	9270	-8	-13	-5	-8	-3
O=C(c1ccccc1F)N1CCN(C(=O)C(c2ccccc2)c2ccccc2)CC1	1.1	5855	-16	-3	15	3	2
CC1CCc2c(C(=O)Nc3nccs3)csc2C1 (stereo unspecified)	-0.6	11081	-48	-4	-16	-10	1
COc1ccc(N(CC(=O)NN=C(C)c2ccc(C)cc2)S(=O)(=O)c2ccccc2)cc1	3.1	·	·	·	3	13	1
Cc1ccc(N/N=C/c2ccc(N3CCOCC3)cc2)cc1C	·	2894	-58	3	·	·	·
COc1ccc(C=NNC(=O)c2cc(-c3cccc(C)c3)nc3ccccc23)cc1O	-4.9	·	·	·	2	2	1
Cn1cc([N+](=O)[O-])c(C(=O)NCc2cc3cc(Cl)ccc3[nH]2)n1	2.3	2811	-23	1	-8	-1	1
CCCCNc1nc2ccccc2nc1NS(=O)(=O)c1cccs1	28	2420	-22	-4	-25	1	1
CCOc1ccccc1/C=C(\C(=O)O)c1ccc(S(=O)(=O)N2CCCCC2)s1	4.7	8571	-10	·	-12	-10	4
Cc1cc(C(=O)NN)c(C)o1	3.0	3284	-5	-3	-3	7	3
COc1ccc(OC)c(NC(=O)COC(=O)c2nc(Cl)ccc2Cl)c1	0.8	2462	-29	2	-6	1	-1
Cc1cccc(NC(=O)CNC(=O)CN2C(=O)NC3(CCCc4ccccc43)C2=O)c1C (stereo unspecified)	4.0	6502	-20	0	6	-3	-5
Cc1ccc(C=NNC(=O)c2cc(C)oc2C)cc1	-1.3	·	·	·	-2	9	13
O=C(CCNS(=O)(=O)c1ccccc1)OCc1nc2ccsc2c(=O)[nH]1	-1.5	5185	-14	1	-2	-7	-4
COc1ccc(C(=O)N2CCC(CCC(=O)Nc3cccc(C)c3)CC2)cc1	-3.3	5822	-23	3	7	1	-12
Cc1cc(NC(=O)CCN2CCN(CCO)CC2)ccc1Br	1.6	4024	-13	-2	3	-1	3
O=C(CCCSc1nnc(SCCCC(=O)c2ccc(F)cc2)s1)c1ccc(F)cc1	5.0	13648	-12	8	7	·	·
CCCCCOC(=O)Nc1ccc(S(=O)(=O)Nc2cccc([N+](=O)[O-])c2)cc1	2.9	9584	-26	-5	-10	8	-1
O=C(COC(=O)C1C2CC3OC(=O)C1C3C2)Nc1ccc(Cl)cc1 (stereo unspecified)	-1.3	5754	-24	-7	8	4	0
CC1CCCCC12NC(=O)N(CC(=O)Nc1ccc(N3CCCCC3)cc1)C2=O (stereo unspecified)	1.4	5505	-22	·	2	-6	7
CCCc1ccc(OCc2nc(-c3ccc(NC(=O)c4ccco4)cc3)no2)cc1	-6.9	5015	-61	32	-6	1	17
O=C(CSc1nnnn1-c1ccc2c(c1)OCCO2)c1cccc2c1OCCO2	12	9726	-13	-3	-12	17	13
Cc1ccccc1-n1nnnc1SC(C)C(=O)Nc1ccc(N2CCN(C)CC2)cc1 (stereo unspecified)	1.6	4664	-12	-1	5	16	5
COC(=O)CSc1nnc(CNC(=O)c2ccco2)n1-c1ccc(F)cc1	2.9	10048	-47	0	2	12	12
CC(=O)c1c(C)[nH]c(C(=O)OCc2nnc(-c3ccccc3)o2)c1C	1.3	4724	-3	6	-5	·	·
CN1C(=O)C(=NOC(=O)c2ccccc2Br)c2ccccc21	2.5	·	·	·	-1	0	-4
CC(C)(C)NC(=O)CSc1ncnc2c1cnn2-c1ccccc1	0.0	3740	-8	6	3	-9	-4
CCN(CC)CCCNc1nc2ccccc2[nH]1	0.8	4814	-3	6	-7	-1	8
O=C(O)c1c2c(nc3ccccc13)/C(=C/c1c(F)cccc1F)CCC2	3.1	3697	-26	1	1	12	-4
O=C(NC(N1CCOCC1)C(Cl)(Cl)Cl)c1ccccc1Cl (stereo unspecified)	8.8	3396	-17	3	13	7	7
COc1ccc(NC(=O)Nc2ccc3c(c2)OCO3)c(C)c1	2.6	·	-36	0	2	-7	-10
CCCCCNC(=O)CCc1ccccc1	5.0	4262	-2	7	1	·	·
Cc1cc(C(=O)COC(=O)[C@H](C)NC(=O)c2ccco2)c(C)n1Cc1ccco1	9.1	2590	-16	3	7	-1	-4
CN(C)C(CNC(=O)c1ccc(Cl)c(S(=O)(=O)N2CCCCCC2)c1)c1ccccc1 (stereo unspecified)	-1.8	4218	-21	·	-9	-2	10
COc1cc(OC)cc(-c2cc3nc(C)c(CCC(=O)Nc4nc(C)cs4)c(C)n3n2)c1	-0.7	5588	-12	-2	9	2	5
Cc1nnc(SCC(=O)Nc2c(Cl)cccc2Cl)n(N)c1=O	3.3	4624	-5	1	6	6	-1
CC1COc2ccccc2N1S(=O)(=O)c1ccc(Cl)cc1 (stereo unspecified)	7.5	4406	-6	0	23	16	6
C=CCOc1ccc(CN(C)C(=O)c2ccc(CNS(=O)(=O)c3ccc(C)c(C)c3)cc2)cc1	-0.5	7716	-4	·	-6	5	-3
CCOC(=O)c1ccc(NC(=O)c2nccnc2C(=O)O)cc1	10	4123	0	-5	-2	1	1
CC(C)Nc1nnc(SC(C)C(=O)Nc2ccc(Cl)cn2)s1 (stereo unspecified)	11	3284	-43	8	-3	11	1
Cc1nn(Cc2ccccc2Cl)c(C)c1C(=O)OCC(=O)NC1CCS(=O)(=O)C1 (stereo unspecified)	4.0	2025	-9	-12	9	10	-1
COc1ccc(C=O)cc1COc1ccc(Cl)cc1[N+](=O)[O-]	3.6	8164	-7	3	-3	2	-2
COc1ccc(C=NNC(=O)/C(=C/c2ccccc2)CCO)cc1	1.2	·	·	·	-1	3	4
Cc1ccc(OC2CCN(C(=O)C3CCC(=O)N(C4CC4)C3)CC2)cc1 (stereo unspecified)	-2.3	6244	-9	-3	-2	10	0

Assay outcomes: PubChem, several laboratories
